Compound activity (PubChem BioAssay)
Vaccinia mCherry – vaccinia inhibition (mCherry reporter) | Vaccinia virus mCherry reporter infection, fluorescence; about a quarter of the inactives have no number | Potency, µM (doses to about 36.5 µM), without a hit: at the top dose activity change, negative = inhibition, actives largely listed as inhibitors | 0.63% of 310,000 active | AID 720579; active = well fitted inhibition curve with a large enough effect; inconclusive = small, poorly fitted or top-dose-only effect; inactive = no such curve, though single readings can be large or run the other way; tested in A549 cells; further: nearly all actives have a fitted effect of over 35% in size; inactives centre near -10
VACV Venus inh – vaccinia inhibition (Venus reporter); Potency, µM (top dose mostly 36.5 µM), for the others: top-dose activity change, negative = inhibition, actives largely listed as inhibitors; Vaccinia virus Venus reporter expression, fluorescence; 0.46% of 330,000 active; active means well fitted inhibition curve with a large enough effect; inconclusive means small, poorly fitted or top-dose-only effect; inactive means no such curve, though single readings can be large or run the other way; tested in A549 cells; further: nearly all actives have a fitted effect of over 30% in size; inactives centre near -10
An asterisk follows results filed as active; i = inactive; ? = inconclusive; nt = no result given; [ ] = remark or other dose. On the % scale 0 is the no-effect control and ±100 the full control effect; potency means the concentration at half of the fitted maximal effect.

SMILES	Vaccinia mCherry	VACV Venus inh
Clc1ccc(OCCCNCc2ccccc2)c2ccccc12	i	-8%
O=C(COc1ccc2c3c(c(=O)oc2c1)CCC3)N[C@@H](CSCc1ccccc1)C(=O)O	0%	-2%
Cn1cnc([N+](=O)[O-])c1Sc1ccc(Br)cc1	-5%	-5%
COc1ccc(C)cc1S(=O)(=O)N(CC(=O)NCc1ccc(Cl)cc1)Cc1ccccc1	-18%	?
O=C(CNC(=O)c1ccc(Cl)cc1)OCc1nc2ccccc2s1	-21%	0%
CCOc1ccc(-c2c(C)n([O-])c3c([n+]2=O)CCCC3)cc1	nt	-3%
CC1(C(=O)O)CCC(C(N)=O)C1(C)C (configuration not stated)	-10%	-8%
CCCCC1=CC2=CC(=O)C(C)(OC(=O)CC)C(=O)C2=CN1CCCCO (configuration not stated)	-8%	-6%
CCOC(=O)c1cnc2ccc(Cl)cc2c1Nc1ccc(S(=O)(=O)Nc2ncccn2)cc1	-9%	-5%
O=C(Nc1ccccc1)C1CCN(C(=O)c2ccc(Br)cc2)CC1	-19%	-21%
COc1ccc([C@H]2C[C@H](O)[C@@H](n3cc(-c4ccc(F)cc4)nn3)CN2C(=O)C2CCCCC2)cc1	-6%	-12%
CCN(CC)S(=O)(=O)c1cccc(C(=O)Nc2nc3cc4c(cc3s2)OCCO4)c1	?	?
CCOC(=O)C(Cc1c[nH]c2ccccc12)NC(=O)COc1ccc(Cl)c(C)c1 (configuration not stated)	-3%	-4%
COC(=O)C1=C(c2cccc(OC)c2OC)C[C@@H]2CC[C@H]1N2C	i	-6%
N#CCCN(Cc1ccccc1)C(=S)Nc1ccc(F)cc1	-9%	-23%
CC(C)(C)c1nc2c(s1)CCc1onc(-c3ccc(Cl)cc3)c1-2	-10%	-10%
COc1cc(/C=C/C(=O)OCC(=O)Nc2cc(C(F)(F)F)ccc2N2CCOCC2)ccc1O	-22%	-24%
COc1ccccc1-c1cc(C(F)(F)F)nc(S(=O)(=O)CCCC(=O)Nc2ccccc2F)n1	-23%[7.34 µM]	-15%[7.34 µM]
S=c1[nH]nc(CCc2nc3ccccc3[nH]2)n1-c1cccc(Cl)c1	-5%	-4%
C[C@H](CO)N1C[C@H](C)[C@@H](CN(C)Cc2ccncc2)Oc2ccc(NC(=O)CCCCCC(=O)Nc3ccccc3N)cc2C1=O	i	-7%
CCOC(=O)[C@@]12C(=O)C(=O)N[C@]1(c1ccccc1)C1OCCCC12 (some centres not stated)	-4%	-4%
CC(C)C[C@H]1COCCS(=O)(=O)N1Cc1cccc(C(F)(F)F)c1	i	-10%
O=c1c2cc(NC(=S)NCCCN3CCC(Cc4ccccc4)CC3)ccc2nc2n1CCCCC2	-21%	?
COc1ccccc1NC(=O)Nc1nnc([C@@H]2C[C@H](O)[C@@H](CO)O2)s1	35%[activator]	6%
Cc1cc(C)c(S(=O)(=O)N(C)CC(=O)NCCN2CCOCC2)c(C)c1	-15%	-14%

Further records:
SMILES	Vaccinia mCherry	VACV Venus inh
COc1ccc2c(c1)CCC1C2=NN(/C(C)=C/C(C)=O)C1c1cccc(F)c1 (configuration not stated)	-27%	-26%
O=C(CSc1ccccc1)NCc1ccc2c(c1)CCN2C(=O)c1ccc(Cl)cc1	-2%	-11%
O=S(=O)(NC1CCCC1)OCC(Cl)(Cl)Cl	-1%	-20%
O=c1nc(SCc2ccc(Cl)cc2)nc(-c2ccccc2)[nH]1	-1%	-16%
CC(C)C[C@H](NC(=O)[C@@H]1Cc2c([nH]c3ccccc23)C2c3ccccc3C(=O)N21)C(=O)N1CCC[C@@H]1C(=O)O (some centres not stated)	2%	-4%
Cc1ccccc1Nc1nc(N)c(C(=O)c2ccccc2Cl)s1	?	?
Cc1nnc(NC(=O)CC(NC(=O)C(F)(F)F)c2ccccc2)s1 (configuration not stated)	-12%	-2%
COCCN(C(=O)CCC(=O)Nc1ccccn1)C(C(=O)NCCC(C)C)c1ccc(F)cc1 (configuration not stated)	i	4%
CCCCOC(=O)Nc1sc2c(c1C(=O)OC)CCC2	-13%	-1%
CCOC(=O)N1C(=O)NC(=O)C1c1ccc(OC)cc1 (configuration not stated)	-12%	-2%
CCNC(=S)N(CCc1c(C)[nH]c2ccc(C)cc12)Cc1cc(OC)c(OC)c(OC)c1	i	?
CCCCS(=O)(=O)N1CCCC(C(=O)Nc2ccc3c(c2)CCC3)C1 (configuration not stated)	-27%	?
Cc1nn(C)c(N)c1-c1ccccc1	-12%	-14%
CCCNC(=O)C1(C)CCN(C(=O)c2cccnc2Oc2ccccc2)C1 (configuration not stated)	21%	-8%
COc1cccc(CN(C)CC(=O)Nc2ccccc2C(=O)Nc2ccccc2)c1OC	?	-21%
CC(C)(O)C#Cc1ccc(CN2CCc3nnc(CCNC(=O)c4ccco4)n3CC2)cc1	-10%	-1%
CN(CC(=O)Nc1ccc(Cl)cc1)C(=O)c1cccc(S(=O)(=O)N(C)C)c1	-9%	-7%
COc1ccc2cc(CNC3CCS(=O)(=O)C3)c(-c3ccc(OC)c(OC)c3)nc2c1 (configuration not stated)	-8%	5%
CCN(CC)S(=O)(=O)c1ccc2c(c1)[nH]c(=S)n2CC	1%	-10%
CCOC(=O)[C@]12CCCC=C1N(CCC1=CCCCC1)C(=O)[C@H](CC(=O)NCCCCc1ccccc1)C2	?	?
CSc1nc2c([nH]c3ccccc32)c(=O)n1-c1ccc(F)cc1	-12%	-15%
COC(=O)C1=C(C)NC(=S)NC1c1ccc(-c2ccccc2C(=O)OC)o1 (configuration not stated)	i	5%
O=C(NC(=S)N1CCCc2ccccc21)c1ccc(Cl)cc1	-7%	-5%
O=C(N/N=C/c1cc(Br)c(O)c(Br)c1)C1CC1	-16%	-10%
COc1ccc(-n2nnnc2C(c2cc3ccccc3o2)N2CCN(C/C=C/c3ccccc3)CC2)cc1 (configuration not stated)	i	-7%

The results go on.
SMILES	Vaccinia mCherry	VACV Venus inh
COc1cc(N=Nc2ccc(C(=O)N(C)C)cc2)c(C)cc1N	?	-1%
COc1cc(OC)c(NC(=O)N2CCC(CN3CCOCC3)CC2)cc1Cl	i	-10%
CC(C)c1ccc2nc(SCC(=O)NCC3CCCO3)c(C#N)cc2c1 (configuration not stated)	i	1%
CCCCOc1ccc(NC(=O)[C@@H]2CCCN2C(=O)C2CCN(S(=O)(=O)c3ccc(C)cc3)CC2)cc1	i	-9%
CN1C(=O)[C@H]2[C@@H](c3ccc(C(F)(F)F)cc3)N[C@]3(CCCN(CC4CCCCC4)C3=O)[C@H]2C1=O	-10%	-23%
O=C(NC1CCCCC1)C(CCc1ccccc1)N1CCc2ccccc2C1 (configuration not stated)	32%[activator]	7%
COc1cccc(NC(=O)Cn2c(=O)ccc3cc(S(=O)(=O)N4CCC(C)CC4)ccc32)c1	-14%	-11%
Cc1ccc(Cl)c2c1NC(=O)C2(O)CC(=O)c1ccc(F)cc1 (configuration not stated)	-10%	-5%
Cc1ccc(NC(=O)c2sc(-n3nc(C)c(Cc4ccc5c(c4)OCO5)c3C)nc2C)cc1Cl	?	2%
COC(=O)N[C@H](c1ccccc1)[C@@]1(C)C[C@@H]1[C@@H](C)C(=O)Nc1ccc2ccccc2c1	-12%	-19%
CCCOc1ccccc1C1NC(=O)NC(C)=C1C(=O)OCCOC (configuration not stated)	nt	-18%
Cc1ccc(NC(=O)c2nc(S(=O)(=O)Cc3ccccc3F)ncc2Cl)cc1	-21%	-18%
Cc1oc2ncn(C)c(=O)c2c1C(=O)N(C)c1ccccc1F	-3%	2%
O=[N+]([O-])c1ccccc1S(=O)(=O)Oc1ccccc1/C=N/n1cnnc1	-10%	-19%
Cc1cc2[nH]c(=O)c(=O)[nH]c2cc1S(=O)(=O)NCc1ccc(F)cc1	-11%	-3%
O=C(O)C1CC=CCC1C(=O)N1CCc2ccccc21 (configuration not stated)	i	-10%
COc1ccc(CNC(=O)CS(=O)CC(=O)O)cc1OC (configuration not stated)	-3%	-12%
CCOC(=O)N1CCC(NC(=O)c2ccc3snnc3c2)CC1	-15%	-11%
O=C(NCCCc1ccccc1)c1nn(-c2ccccc2)nc1CO	-1%	-5%
Cc1cccc(-c2noc(CN(C)C(=O)c3ccc4c(c3)OCO4)n2)c1	-11%	-10%
O=C(CN1C(=O)C(=O)N(C2CCCC2)C1=O)Nc1ccc(F)cc1F	-14%	-13%
O=C(O)c1cccc(N2C(=O)c3cccc4cccc(c34)C2=O)c1	-14%	-18%
CSc1ccc(CN(C)CC(=O)Nc2ccc(C)cc2Br)cc1	i	-11%
O=C(NC(=S)Nc1ccccc1N1CCCCC1)c1ccc(F)cc1Cl	-12%	-12%
C[C@@H]1CN([C@@H](C)CO)C(=O)c2cc(NC(=O)Nc3ccc4c(c3)OCO4)ccc2O[C@H]1CN(C)S(=O)(=O)c1ccc(F)cc1	i	?

Next section
SMILES	Vaccinia mCherry	VACV Venus inh
COc1ccccc1NCc1nnc2n1CCCCC2	-3%	-1%
CC(=O)c1cccc(-n2c(CCC(=O)O)ccc2-c2ccccc2)c1	4%	6%
CCc1cccc(OCC(=O)Nc2ccc(C)c(S(=O)(=O)N3CCCCCC3)c2)c1	?	-14%
COc1cc(OC)c(N(C)S(=O)(=O)c2cccc(C(=O)NC3=NCCS3)c2)cc1Cl	-17%	?
C=CC[C@@H](CC(=O)N[C@@H](CO)Cc1ccccc1)C(=O)NCCOC(=O)[C@@H](CC=C)CC(=O)OC(C)(C)C	i	-13%
Cc1cc(Cl)ccc1OCCCC(=O)N/N=C/c1cccc([N+](=O)[O-])c1	-6%	-13%
COc1cnc(SCCC(F)=C(F)F)[nH]c1=O	-24%	-24%
O=C1C=C(c2cccc(OCc3ccccc3)c2)C[C@@H](c2ccc3c(c2)OCO3)C1	-25%	-20%
Cc1cccc(N2CCN(C(=O)c3ccccc3NC(=O)C3=CSCCO3)CC2C)c1 (configuration not stated)	0%[7.34 µM]	-10%[7.34 µM]
Cc1nn(CC(=O)NC(C)C(C)C)c(C)c1S(=O)(=O)N1CCCCC1 (configuration not stated)	i	-12%
COc1ccc(Cn2c(C)c(C)c(C#N)c2NC(=O)Nc2cccc(C)c2)cc1	?	-20%
Cc1ccccc1OCC(=O)NN1CCN(C)CC1	i	-9%
O=c1cc(-c2ccc(F)cc2)nc(SCc2nc(-c3cccc(Cl)c3)no2)[nH]1	-17%	-3%
CCCOC(=O)c1ccc(O)c(OC)c1	2%	-1%
CC(=O)Oc1ccc(/C=C2/C(=O)N(c3ccccc3)N=C2C)cc1	-29%	-7%
COc1cc(/C=C/c2nc3ccccc3c(=O)[nH]2)cc(Cl)c1O	-4%	-2%
CCOC(=O)c1cnc2c(C)cc(C)cc2c1Nc1ccc(N2CCOCC2)cc1	-8%	-5%
O=C1[C@H]2[C@@H](c3ccc(C(F)(F)F)cc3)N[C@]3(CCCN(Cc4ccc(Cl)cc4)C3=O)[C@H]2C(=O)N1Cc1ccccc1	?	?
C#CCN1C=CC(=O)[C@@H](O)[C@H]1c1ccccc1Br	-16%	3%
Cn1cnc(S(=O)(=O)N2CCCC(C(=O)NCc3ccc(F)cc3)C2)c1 (configuration not stated)	-8%	-6%
N#CCCN(Cc1ccccc1)C(=O)CCC(=O)c1ccc(F)cc1	i	9%
CC1(C)C(=O)C=C[C@]2(C)C1CC(=O)[C@]1(C)C2CC[C@@]2(C)C(c3ccoc3)OC(=O)C3O[C@@]321 (some centres not stated)	-10%	-8%
Cc1ccccc1-n1c(-c2csc(C)c2C)n[nH]c1=S	-27%	?
CCCCc1c(Cc2cccc(F)c2)ncn1CCc1ccccc1OC	-14%	-16%
c1ccc(-n2ncc3c(NCC4CCCO4)ncnc32)cc1 (configuration not stated)	-29%	-14%
COc1ccc(/C=C/C(=O)OCC(=O)Nc2ccc(S(N)(=O)=O)cc2)cc1OC	-2%	-10%
CC(=O)Nc1cc(NC(C)=O)c(CC(C)C)s1	-32%	-25%

In the list so far, twelve contain an NH in an aromatic ring.
SMILES	Vaccinia mCherry	VACV Venus inh
CCOC(=O)C(Cc1c[nH]c2ccccc12)NC(=O)COc1ccc(Cl)c(C)c1 (configuration not stated)	-3%	-4%
S=c1[nH]nc(CCc2nc3ccccc3[nH]2)n1-c1cccc(Cl)c1	-5%	-4%
O=c1nc(SCc2ccc(Cl)cc2)nc(-c2ccccc2)[nH]1	-1%	-16%
CC(C)C[C@H](NC(=O)[C@@H]1Cc2c([nH]c3ccccc23)C2c3ccccc3C(=O)N21)C(=O)N1CCC[C@@H]1C(=O)O (some centres not stated)	2%	-4%
CCNC(=S)N(CCc1c(C)[nH]c2ccc(C)cc12)Cc1cc(OC)c(OC)c(OC)c1	i	?
CCN(CC)S(=O)(=O)c1ccc2c(c1)[nH]c(=S)n2CC	1%	-10%
CSc1nc2c([nH]c3ccccc32)c(=O)n1-c1ccc(F)cc1	-12%	-15%
Cc1cc2[nH]c(=O)c(=O)[nH]c2cc1S(=O)(=O)NCc1ccc(F)cc1	-11%	-3%
COc1cnc(SCCC(F)=C(F)F)[nH]c1=O	-24%	-24%
O=c1cc(-c2ccc(F)cc2)nc(SCc2nc(-c3cccc(Cl)c3)no2)[nH]1	-17%	-3%
COc1cc(/C=C/c2nc3ccccc3c(=O)[nH]2)cc(Cl)c1O	-4%	-2%
Cc1ccccc1-n1c(-c2csc(C)c2C)n[nH]c1=S	-27%	?
